Screening results (PubChem BioAssay)
MT1-MMP reporter: inhibitors of MT1-MMP promoter transcription, cell-based, luciferase reporter, luminescence (AID 618); MT1-MMP promoter luciferase reporter cells, luminescence; calls from a first round at 10 µM; hits with a dose series show EC50 in µM; 87,000 tested, 0.62% active;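 active = over half of the reporter light lost at 10 µM or EC50 under 50 µM; inactive = the rest and hits that failed the dose series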;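 note: actives suppress MT1-MMP promoter-driven transcription so potencies describe inhibitors; HT1080 fibrosarcoma cells; overnight exposure; toxic or luciferase-blocking compounds were not removed from the actives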
Hsc70: small molecules displacing fluorescent ligand from Hsc70 – biochemical, fluorescence polarization, primary screen (AID 568) | 83,000 tested, under 10 active | one-dose displacement, % at 20 µM; IC50 in µM for titrated hits | Hsc70 fluorescence polarization, probe displacement; higher % means a stronger effect; strong numbers were not always called active;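 active = displacement above 50% without optical interference and an IC50 on retest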;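 note: ATPase domain with a fluorescein-tagged ATP probe; 0% = vehicle and 100% = excess ADP; read after one hour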
WNV protease inh: blocks West Nile virus NS2B-NS3 protease activity. z-score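 (tested at a level between 10 and 100 µM)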. WNV NS2B-NS3 protease, fluorogenic substrate Ex360/Em465; hits give low values. 65,000 tested, 0.18% active. P06935;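 active = z-score at -3 or under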;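 note: score is relative to mean and spread of the compound wells of a plate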
Target sequence (P06935 1371-1501 limits assumed): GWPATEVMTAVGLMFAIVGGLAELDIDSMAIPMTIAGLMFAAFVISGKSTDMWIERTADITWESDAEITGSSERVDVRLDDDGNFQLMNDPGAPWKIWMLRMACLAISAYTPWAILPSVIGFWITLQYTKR
Target sequence (P06935 1502-1679 limits assumed): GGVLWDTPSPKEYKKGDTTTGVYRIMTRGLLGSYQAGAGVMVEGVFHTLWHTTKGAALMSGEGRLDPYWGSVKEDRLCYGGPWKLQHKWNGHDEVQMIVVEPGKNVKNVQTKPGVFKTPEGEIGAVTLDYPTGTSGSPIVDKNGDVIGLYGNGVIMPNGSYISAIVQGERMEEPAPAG
* marks the source's active call; other numbers are inactive results; i = inactive; . = no result given. Rows are unselected; about 0.77% have a hit in one of these screens.

SMILES	MT1-MMP reporter	Hsc70	WNV protease inh
O=C1C2C3c4ccccc4C(c4ccccc43)[C@@H]2c2nc3ccccc3n21 (stereo partly specified)	i	-0.3%	.
CCn1c(-c2ccc(OC)c(OC)c2)n[nH]c1=S	i	0.1%	0.06
Cc1noc(C)c1COC(=O)c1ccc2c(c1)OCO2	i	10%	2.3
CCCCN1C2=NCCCN2c2cc(C)c(C)cc21	i	-1.0%	1.5
CCOC(=O)CC1C(=O)NCCN1C(=O)NC1CCCCC1 (stereo unspecified)	i	-5.5%	.
CCOC(=O)C1CCCN(S(=O)(=O)c2ccc(Br)s2)C1 (stereo unspecified)	i	-4.6%	-0.41
COc1cc2cc(C#N)c(SCC(=O)N3CCOCC3)nc2cc1OC	i	-8.2%	.
COc1ccc(-n2cnnc2SCC(=O)N(C)C2CCS(=O)(=O)C2)cc1 (stereo unspecified)	i	3.8%	-0.25
CCC(=O)Nc1ccc(OC)cc1OC	i	3.2%	-0.67
CC1CCCN(S(=O)(=O)c2ccc(NC(=O)CN3CCN(C)CC3)cc2)C1 (stereo unspecified)	i	4.8%	-0.74
CCOC(=O)c1sc(NC(=O)c2c(C)noc2C)c(C(=O)OCC)c1C	i	25%	1.1
Cc1cccc(OCCSc2cc(C)nc(N)n2)c1	i	9.1%	0.76
CCCC(c1nnnn1Cc1ccc(F)cc1)N1CCN(C2CCCCC2)CC1 (stereo unspecified)	i	-3.6%	0.62
Cc1nc(NCCN2CCOCC2)c2nnn(Cc3ccccc3Cl)c2n1	i	-3.2%	0.95
O=C(c1cccc(Br)c1)N1CCN(C(=O)N2CCOCC2)CC1	i	4.7%	.
CCN(CC)C(=O)C1CCC(C)(C(=O)O)C1(C)C (stereo unspecified)	i	-12%	-0.38
CCSc1nnc(NC(=O)c2nc(-c3ccccc3)n(-c3ccccc3)n2)s1	i	-1.0%	0.83
O=C(Nc1nc(-c2nc3ccccc3s2)cs1)C1CC1	i	3.1%	0.2
O=C(N1CCN(c2ccc(F)cc2)CC1)C12CC3CC(CC(C3)C1)C2	i	3.8%	-0.29
COc1ccc(Nc2nc3ccccc3nc2C)cc1	i	-13%	0.63
O=c1c2c([nH]c3ccccc13)CCCCCC2	i	-2.7%	0.99
Cc1cc(CN2CCOCC2)c(O)c(C2(C)CCCCC2)c1	i	3.8%	-0.56
COc1cc(OC)c(C2C(C#N)=C(N)OC3=C2C(=O)CC(C)(C)C3)cc1OC (stereo unspecified)	i	0.6%	0.88
Cc1ccc(-c2nn(-c3ccccc3)cc2CO)o1	i	-3.2%	.
Cc1nnc(NCc2ccncc2)c2ccccc12	i	-2.0%	-1.5
More compounds
SMILES	MT1-MMP reporter	Hsc70	WNV protease inh
Cc1cc(C)c2c(n1)nn1c(N3CCN(Cc4ccccc4)CC3)cc(C)nc21	i	-2.6%	0.75
Cc1c(Cl)cnc(NC(=O)CSc2nnc(C)n2Cc2ccccc2)c1Cl	i	-0.4%	.
Cc1ccccc1N=C1NC(=O)CS1	i	-3.3%	-0.16
CC(C)CNC(=O)c1c(N)n(/N=C/c2ccccn2)c2nc3ccccc3nc12	i	-2.5%	0.09
COc1cccc(NC(=O)N(Cc2cc3cc(C)cc(C)c3[nH]c2=O)CC2COCCO2)c1 (stereo unspecified)	i	-4.8%	-0.02
CCC(=O)Nc1c(C)cc(C)cc1Cl	i	-5.8%	-0.27
COCCNC(=O)C(c1ccccc1C)N(C(=O)Cn1nnc2ccccc21)c1cccnc1 (stereo unspecified)	i	-0.5%	.
CCN(CC)c1ccc(-c2nn3c(-c4n[nH]c5c4CCC5)nnc3s2)cc1	i	-23%	-0.58
c1ccc(-n2nnnc2N2CCOCC2)cc1	i	6.7%	-0.51
CCCCCCn1c(CN2CCCC(C)C2)nc2c1c(=O)n(C)c(=O)n2C (stereo unspecified)	i	-1.8%	-0.19
CCCc1cc(=O)[nH]c(SCC(=O)c2cc(C)n(C)c2C)n1	i	-6.7%	.
COc1ccccc1CNC(=O)CCNC(=O)Cn1cnc2ccccc2c1=O	i	-1.9%	0.49
COc1cc(/C=N/n2c(C)nnc2C)cc(OC)c1OC	i	3.3%	0.08
CC(=O)N(c1ccc(Cl)cc1)c1c[nH]c2ccccc12	i	1.8%	-0.17
CCOCC(=O)Nc1ccc2c(c1)OCCO2	i	0.1%	1.4
O=c1c2cc(Br)ccc2nc2n1CCCCC2	i	3.6%	.
CCCN(CCO)Cc1cccc(Cl)c1	i	1.7%	0.3
CCNC(=O)NC(=O)C(C)SCc1ccccc1C (stereo unspecified)	i	-2.1%	1.8
COc1cc(NS(=O)(=O)c2ccc(NC(=O)C3CCCO3)cc2)nc(OC)n1 (stereo unspecified)	i	-2.9%	0.66
O=C(N1CCOCC1)C12CCC3CC(CC(C3)C1)C2	i	-3.2%	-1.6
O=C(NCCN1CCCCC1)c1ccc(=O)oc1	i	4.3%	0.47
c1nnc(NC2=NCCC2)s1	i	2.2%	.
CCCn1c(=O)c(C(=O)Nc2ccccc2C(=O)OCC)c(O)c2ccccc21	i	-1.2%	-0.26
Cn1nnnc1SCCOc1ccc(C#N)cc1	i	4.0%	0.31
CCOc1ccc(S(=O)(=O)N2CCN(c3ccc(OC)cc3)CC2)c2cccnc12	i	-0.4%	0.1
More compounds:
SMILES	MT1-MMP reporter	Hsc70	WNV protease inh
COC(=O)C(NC(C)=O)(Nc1nc2ccc(C)cc2s1)C(F)(F)F (stereo unspecified)	i	-0.3%	.
O=C(NCc1ccco1)Oc1ccccc1	i	3.1%	-0.02
CCOC(=O)c1nnc(-c2ccccc2)o1	i	5.9%	-0.05
CC(=O)N1CCc2cc(S(=O)(=O)NCCC(=O)N3CCN(Cc4ccccc4)CC3)ccc21	i	5.0%	0.88
Cc1cccc(NS(=O)(=O)c2cnc[nH]2)c1	i	0.5%	.
CC1Cc2cc(/C(O)=C3/C(=O)C(=O)N(CC4CCCO4)C3c3ccco3)ccc2O1 (stereo unspecified)	i	-45%	-0.51
COc1cccc(C(=O)/C=C/Nc2cc(C)ccc2O)c1	i	-6.1%	-0.46
COc1cccc(C(C#N)N2CCCCC2)c1O (stereo unspecified)	i	2.7%	-0.33
CC(C)c1ccccc1N=C1SCCN1C1CCS(=O)(=O)C1 (stereo unspecified)	i	-2.6%	1.2
Cc1c(C(=O)Nc2cnccn2)oc2ccccc12	i	6.2%	-1.2
COc1ccccc1C(=O)NCCc1nc2ccccc2[nH]1	i	-2.6%	-0.02
COc1ccc(C2C(C(=O)c3cccs3)=C(O)C(=O)N2c2nnc(C)s2)cc1OC (stereo unspecified)	i	101%	0.45
Cc1nnc(SCC(=O)N2CCOCC2)c2ccccc12	i	1.2%	0.34
O=C(CC(c1ccccc1)c1ccccc1)NCCO	i	1.8%	-0.61
COc1cc(C2CC(=O)Nc3ccccc3S2)cc(OC)c1OC (stereo unspecified)	i	-4.0%	1.1
O=C(Nc1ccc(-c2noc(COc3ccccc3Cl)n2)cc1)c1ccco1	i	-0.7%	-1
O=C1CCCC2=C1C(c1cccs1)n1nc(SCc3ccccc3)nc1N2 (stereo unspecified)	i	-2.7%	-0.48
CC(=O)NC1=NC(=O)/C(=C/N2CCOCC2)S1	i	-10%	-0.00085
Cc1occc1C(=O)NCc1ccccc1	i	3.6%	.
CCSc1nc2ccccc2n1CC(N)=O	i	2.0%	0.17
Cc1ccc(-c2nnc(SCC(=O)Nc3ccc4c(c3)OCCO4)n2N)cc1	i	-0.1%	-1.3
CC(=O)c1cccc(NC(=O)N2CCCC2C(=O)NCc2ccc(C)cc2)c1 (stereo unspecified)	i	0.4%	0.85
Cn1c(=O)c2c(nc(CN3CCc4ccccc4C3)n2CC(=O)c2ccccc2)n(C)c1=O	i	-0.7%	-0.69
CC(C)CC(NC(=O)C1CCC(C)CC1)C(=O)Nc1cccnc1 (stereo unspecified)	i	3.1%	1.6
CC(=O)Nc1nc2c(c3c1c(=O)oc1ccccc13)CCCCC2	i	3.9%	-0.73

One compound at a time (already shown). Values in the order: MT1-MMP reporter	Hsc70	WNV protease inh
COc1ccc(C2C(C(=O)c3cccs3)=C(O)C(=O)N2c2nnc(C)s2)cc1OC (stereo unspecified) across the screens: i	101%	0.45
Cc1occc1C(=O)NCc1ccccc1 across the screens: i	3.6%	.
Cn1c(=O)c2c(nc(CN3CCc4ccccc4C3)n2CC(=O)c2ccccc2)n(C)c1=O across the screens: i	-0.7%	-0.69
CC(=O)Nc1nc2c(c3c1c(=O)oc1ccccc13)CCCCC2 across the screens: i	3.9%	-0.73

Later entries:
SMILES	MT1-MMP reporter	Hsc70	WNV protease inh
O=C(NC1CCCCC1)N1CCCC(c2nc3ccccc3[nH]2)C1 (stereo unspecified)	i	2.9%	-1.3
Cc1ccc(Cn2ncc3c(N4CCCC4)ncnc32)cc1	i	-0.2%	-0.0019
COc1ccccc1C(=O)n1nc(-c2ccco2)nc1N	i	-0.3%	-1.4
COc1ccc(CCNC(=O)CSc2nnc(-c3cccc(F)c3)o2)cc1OC	i	3.9%	0.62
c1ccc(Cn2nnc3c(N4CCc5ccccc5C4)ncnc32)cc1	i	-5.6%	0.66
COc1ccc(CNC(=O)C2CCNCC2)cc1	i	-6.0%	-0.43
Cc1nnc(SCC(=O)NCCN2C(=O)CSC2=O)s1	i	3.2%	-0.22
Cn1cccc1Cc1nnc(SCC(=O)N2CCN(c3ccccc3)CC2)n1-c1ccc(F)cc1	i	-5.4%	0.4
CCOC(=O)c1c(C)[nH]c(C)c1-c1ccccc1OC	i	1.6%	-0.84
COc1ccccc1C(CC(=O)Nc1nccs1)c1ccco1 (stereo unspecified)	i	-0.7%	-0.18
CC1(C)Cc2cccc(OCC(=O)Nc3cccnc3Cl)c2O1	i	2.6%	.
Cn1c(=O)n(-c2cccc(Cl)c2)c(=O)c2c3c(sc21)COC(C)(C)C3	i	2.2%	.
Cc1csc(SCC(=O)NC2CCCCC2)n1	i	-0.2%	.
Cc1cccc2cc(=O)[nH]c(C)c12	i	8.8%	0.14
CCCCn1c(SCC(=O)NC(=O)NCc2ccco2)nc2cc(S(N)(=O)=O)ccc21	i	-7.3%	-0.55
CC1CCCCC1N=CC1=C(O)CC(C)(C)CC1=O (stereo unspecified)	i	0.8%	-2.4
COc1ccccc1Nc1nnc(SCC(=O)N2CCCC2=O)s1	i	2.8%	0.34
O=C(CNS(=O)(=O)c1ccccc1)Nc1ccc(C(F)(F)F)cc1	i	1.1%	.
O=C(NCCc1ccccc1)c1nc2nc(-c3cccs3)cc(C(F)(F)F)n2n1	i	-1.5%	.
Cn1nc([N+](=O)[O-])nc1Oc1ccc2ccccc2c1	i	-4.3%	.
CCN(CC)S(=O)(=O)c1ccc(C(=O)OCCNC(=O)c2cccnc2)cc1	i	2.5%	.
O=C(Nc1cccnc1)c1cnc2ccccc2n1	i	-2.4%	-1.3
N#CCc1c(C#N)c(N)nc(N2CCN(c3ccc(F)cc3)CC2)c1C#N	i	-3.7%	.
CCOC(=O)c1c(C)[nH]c(C(=O)CSc2nnc(C3CC3)n2N)c1C	i	7.4%	.
CCN1CCN(S(=O)(=O)c2ccc(OC)c(Br)c2)CC1	i	5.2%	-1.6

Single entries from above:
Hsc70 with COc1cc2cc(C#N)c(SCC(=O)N3CCOCC3)nc2cc1OC → -8.2%
WNV protease inh with c1ccc(Cn2nnc3c(N4CCc5ccccc5C4)ncnc32)cc1 → 0.66

The results go on:
SMILES	MT1-MMP reporter	Hsc70	WNV protease inh
Cc1ccc(C(=O)C2CCN(CC(=O)Nc3ccc(N(C)C)cc3)CC2)cc1	i	7.3%	0.0046
Cc1ccccc1NC(=O)CSc1nc(N)c(C#N)c(-c2cccs2)c1C#N	i	-6.0%	0.71
Cc1nn2c(N)c(C#N)cnc2c1-c1ccccc1	i	-4.2%	.
NC(=O)c1sc2nc3c(c(-c4cccnc4)c2c1N)CCC3	i	2.7%	.
Cc1ccc(S(=O)(=O)N(C)CC(=O)Nc2nc3ccccc3s2)cc1	i	-4.3%	1.4
COc1ccc(-n2nnnc2SCC(=O)NCCc2ccc(OC)c(OC)c2)cc1	i	-5.2%	-0.93
COC(=O)c1cccc(NC(=O)CN(c2ccc3c(c2)OCO3)S(C)(=O)=O)c1C	i	-3.9%	1.8
CC(C)n1c(SCC(=O)N2CCCc3ccccc32)nc2c1c(=O)n(C)c(=O)n2C	i	1.2%	-0.07
Cc1[nH]c2ccccc2c1C(c1ccccn1)N1CCC(C)CC1 (stereo unspecified)	i	1.7%	.
CN(c1ccc(OCC(=O)Nc2ccc3[nH]c(=O)[nH]c3c2)cc1)S(=O)(=O)c1ccc(Cl)cc1	i	-2.6%	.
Cc1cc(C)cc(NC(=O)c2ccc(Cn3nc(C)c(Cl)c3C)o2)c1	i	-3.2%	.
CCOC(=O)N1CCC(NC(=O)Cc2ccc(-n3c(=O)[nH]c4ccccc4c3=O)cc2)CC1	i	8.0%	-0.43
Cc1cc(OCc2nn[nH]n2)c2c(C)c(Cc3ccccc3)c(=O)oc2c1	i	3.1%	0.36

In the list so far, four have bromine.
SMILES	MT1-MMP reporter	Hsc70	WNV protease inh
CCOC(=O)C1CCCN(S(=O)(=O)c2ccc(Br)s2)C1 (stereo unspecified)	i	-4.6%	-0.41
O=C(c1cccc(Br)c1)N1CCN(C(=O)N2CCOCC2)CC1	i	4.7%	.
O=c1c2cc(Br)ccc2nc2n1CCCCC2	i	3.6%	.
CCN1CCN(S(=O)(=O)c2ccc(OC)c(Br)c2)CC1	i	5.2%	-1.6
